# Compound activity: PubChem, National Center for Advancing Translational Sciences (NCATS)
# FEN1 inh – blocks human flap endonuclease 1; Recombinant FEN1 flap cleavage, fluorescence, 15 min; 390,000 tested, 0.35% active; Potency, µM (highest dose often 114 µM), inactives show at the top dose activity change, negative = inhibition, most hits filed as inhibitors; P39748; note: nearly all actives have a fitted effect of over 65% in size
# Target sequence (P39748 whole entry, looked up): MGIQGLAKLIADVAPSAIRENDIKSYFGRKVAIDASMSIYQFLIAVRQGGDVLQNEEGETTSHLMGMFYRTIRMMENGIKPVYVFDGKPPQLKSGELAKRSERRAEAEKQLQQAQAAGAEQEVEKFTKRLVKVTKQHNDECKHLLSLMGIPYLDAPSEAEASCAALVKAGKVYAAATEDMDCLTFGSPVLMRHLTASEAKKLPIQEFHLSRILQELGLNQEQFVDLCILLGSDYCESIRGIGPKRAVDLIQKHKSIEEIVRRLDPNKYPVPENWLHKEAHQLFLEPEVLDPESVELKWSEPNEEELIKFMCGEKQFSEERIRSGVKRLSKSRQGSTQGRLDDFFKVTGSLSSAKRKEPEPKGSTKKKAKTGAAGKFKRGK
#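 Nuclease activity of 10 nM FEN1 was measured after 15 min of room-temperature exposure to titrated compounds, by adding 50 nM flap substrate and reading plates at 0 and 15 min.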
# N370S GC – inhibitors or activators of N370S glucocerebrosidase for Gaucher disease | P04062 | N370S GC spleen homogenate, 4MU-glucoside fluorescence | Potency, µM (series often up to 59.4 µM), without a hit: top-dose activity change, negative = inhibition, most hits filed as inhibitors | 330,000 tested, 0.092% active | AID 2101;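 note: 0% = full enzyme activity and -100% = no enzyme basal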
# Active calls of the source: *; ? = inconclusive; . = no result given; & = joins results of further samples; [ ] = another dose, or the depositor's remark. Calls come from the whole dose curve; as a rule, active = well fitted curve in the direction sought with a large enough effect; inconclusive = small, poorly fitted or top-dose-only effect, or another doubt; inactive = no such curve, though single readings can be large; an effect the other way counts as inactive or inconclusive. Unless noted, % is set by controls: 0 for no effect and ±100 for the full control effect; potency is the fitted concentration of half-maximal effect. The list is partial, and most or all hits are left out here.
structure	FEN1 inh	N370S GC
Cc1ccc(-n2c(=O)[nH]c3ncccc3c2=O)cc1	3.6%	9.2%
CN(CCC#N)C(=O)CSc1ncnc2sc(-c3ccccc3)cc12	-14.4%	4.0%[2.35 µM]
N#Cc1ccsc1NC(=O)COC(=O)c1ccc2ccccc2c1	1.2%	-0.5%
Fc1ccc(C(c2ccc(F)cc2)N2CCN(C/C=C/c3ccccc3)CC2)cc1	-5.0%	-22.2%&-14.2%&-29.6%&-27.2%&-10.4%
CCOc1ccc(C(CC(=O)O)NC(=O)C(c2ccccc2)c2ccccc2)cc1OC (configuration not stated)	26.0%	.
O=C(NCCS(=O)(=O)N1CCN(c2ccccc2)CC1)c1ccccc1F	-4.0%	-1.1%
O=C(O)c1cccc(-n2cccc2/C=N/O)c1	?	-8.8%
COC(=O)Cc1csc(NCc2ccccc2)n1	-10.0%	0.8%
Cc1ccc(Cl)cc1N1CCN(C(=O)c2cccc3c(=O)c(C)c(-c4ccccc4)oc23)CC1	-4.4%	5.5%
CCc1ccc(-c2nc(-c3ccncc3)no2)cc1	-15.0%	6.5%
Cc1ccc(NC(=O)CSc2nc(N)cc(=O)[nH]2)cc1S(=O)(=O)N1CCCCC1	-0.1%	.
COc1ccc(S(=O)(=O)NCCCN2CCCC2=O)cc1OC	22.6%	0.0%

structure	FEN1 inh	N370S GC
CC1CCCN(C(=O)C2COc3ccccc3O2)C1 (configuration not stated)	17.2%	-8.4%
COc1ccc(-c2cc(C(=O)NCc3cccnc3)no2)cc1	-3.0%	0.7%
Nc1nc(-c2ccco2)nn1C(=O)c1ccc(Cl)cc1	6.7%	10.6%
O=[N+]([O-])c1cc(-c2nnc(Nc3ccccc3)c3ccccc23)ccc1N1CCOCC1	-16.9%	8.9%
CC(O)[C@@H](C(=O)N1CCNCC1)n1cc(CCCCN)nn1 (some centres not stated)	-12.2%	-20.8%
C[C@]12C=CC(=O)C=C1CC[C@@H]1[C@@H]2C(=O)C[C@@]2(C)[C@H]1CC[C@]2(O)C(=O)CO	-16.7%&18.8%	1.1%&-8.9%
COCCNC(=S)N1CCN(C/C=C/c2ccccc2)CC1	-2.5%	-0.2%
COc1ccc2cc(-c3ccccc3)ncc2c1	-5.8%	-8.2%
O=[N+]([O-])c1ccc2nc(NS(=O)(=O)c3ccc(F)cc3)sc2c1	9.1%	-7.1%
CC1=CC(C)(C)N(C)C(=O)N1c1ccc(Cl)cc1	-2.3%	10.1%
CCN(CC)CCC(c1cc(OC)c(OC)c(OC)c1)c1c(OC)cc(OC)c2c(-c3ccccc3)cc(=O)oc12 (configuration not stated)	2.7%&-2.6%	?
N#CC1=C(N)NC(SCC(=O)c2ccc(Cl)cc2)=C(C#N)C12CCCC2	-12.4%	?

structure	FEN1 inh	N370S GC
CCOc1ccc(C2c3c(oc4ccccc4c3=O)C(=O)N2CCCN2CCOCC2)cc1 (configuration not stated)	1.7%	-4.9%
COc1ccccc1OCCNC(=O)C1CC(=O)N(Cc2ccc(C)cc2)C1 (configuration not stated)	1.2%	0.8%
O=C(Nc1nnc(-c2cccc(F)c2)s1)Nc1ccccc1F	-10.1%	.
CCOC(=O)Cc1c(C)nc2cc(-c3ccc(C(C)(C)C)cc3)[nH]n2c1=O	3.6%	-20.8%
CCC(=O)N(CCC1(c2ccccc2OC)CCOC(C(C)C)C1)Cc1ccco1 (configuration not stated)	-11.3%	-2.4%
CCCCN1CC(COc2ccccc2)OC1=O (configuration not stated)	-8.1%	4.5%
C=C[C@](C)(O)CCC=C(C)C	.	-3.9%
Cc1c(C(=O)OCC(=O)Nc2ccc(S(N)(=O)=O)cc2)oc2c1ccc1ccccc12	-9.8%	?
COc1ccccc1NC(=O)CCC(=O)Nc1ccccc1OC	-8.4%	1.6%
CCN(C(=O)CSc1nnc(C)n2c1cc1occc12)c1ccccc1	5.6%	.
CCOc1ccc(S(=O)(=O)NC(=O)c2ccccc2)cc1	-10.2%	-2.5%
CC(=O)N1CCc2cc(Br)cc(S(=O)(=O)N3CCN(c4cccc(C(F)(F)F)c4)CC3)c21	1.0%	.

# A different layout for some results above:
> COc1ccccc1NC(=O)CCC(=O)Nc1ccccc1OC
- FEN1 inh: -8.4%
- N370S GC: 1.6%
> CCN(C(=O)CSc1nnc(C)n2c1cc1occc12)c1ccccc1
- FEN1 inh: 5.6%
- N370S GC: .
> CCOc1ccc(S(=O)(=O)NC(=O)c2ccccc2)cc1
- FEN1 inh: -10.2%
- N370S GC: -2.5%

# Later entries
structure	FEN1 inh	N370S GC
Cc1ccc(S(=O)(=O)N2CCCC2C(=O)Nc2nccs2)cc1 (configuration not stated)	-2.5%	-1.5%
Cc1cc(C)c2c(=O)cc(C(=O)Nc3sc4c(c3C(=O)NCc3cccnc3)CCCC4)oc2c1	18.3%	.
O=C(COC(=O)c1ccccc1O)Nc1ccc2ccccc2c1	-14.2%	.
Cc1c(-c2ccc(Cl)cc2)[n+](=O)c2c(n1[O-])CCCC2	14.9%	1.6%
CC1CCN(CCCNC(=O)c2coc3nc4ccccc4nc23)CC1	-1.0%	?
COc1cc(/C=C/C(=O)OCC(=O)NCCC2=CCCCC2)ccc1O	-2.8%	-2.7%
CC1=NN(c2ccccc2)C(=O)/C1=C\c1cc(C)n(-c2cccnc2)c1C	7.1%	1.5%
CCC(C)(C)NC(=O)C(c1cccn1C)N(C(=O)Cn1nnc2ccccc21)c1ccc(NC(C)=O)cc1 (configuration not stated)	9.3%	13.5%
Cc1ccccc1Nc1c(-c2c[nH]c3ccccc23)nc2ccc(Cl)cn12	9.0%	.
CCCC(=O)NC(NC(=S)Nc1ccc(S(N)(=O)=O)cc1)C(Cl)(Cl)Cl (configuration not stated)	-8.2%	15.5%
CCN(CC)c1ccc(/C=C(/C#N)C(=O)NCc2ccccc2)o1	11.3%	14.9%
CCC(C)NC(=O)N1c2ccccc2Sc2ccccc21 (configuration not stated)	0.1%	0.1%

structure	FEN1 inh	N370S GC
COc1ccc(NC(=O)CC2C(=O)N(c3ccc(F)cc3)C(=S)N2NC(=O)c2ccccc2)cc1 (configuration not stated)	20.6%	8.1%
CC1CN(S(=O)(=O)Cc2ccccc2)CC(C)O1 (configuration not stated)	4.7%	8.1%
COc1cccc(OC)c1C(=O)Nn1c(C2CCC2)nc2ccccc2c1=O	4.2%	-1.6%
O=C(c1ccc(C(F)(F)F)cc1)N1CCC(=O)N(C(COCc2ccc(Cl)cc2)Cc2ccccc2)CC1 (configuration not stated)	-22.8%	12.4%
CCOC(=O)c1oc2ccc3c(c2c1C)C(=O)CC1(CCN(C(=O)OCC)CC1)O3	2.3%	-11.0%
Cc1ccc2c(=O)cc(CSCC(=O)Nc3nnc(C)s3)[nH]c2c1	-12.2%	.
N#CC1=C(N)OC2=C(C(=O)CCC2)C1c1cccs1 (configuration not stated)	-1.3%	-0.9%
CCOc1cc(C(=S)N2CCOCC2)ccc1OC(=O)c1cc(OC)c(OC)c(OC)c1	21.5%	-3.7%
COC(=O)C1=C(C)NC(C)=C(C(=O)OC)C1c1ccc(NC(C)=O)cc1	-15.1%	0.4%
O=C(Nc1ccc(Cl)cc1)/C(=C1\CCCN1)[N+](=O)[O-]	2.1%	-6.3%
CC(=O)c1ccc(NC(=S)NNC(=O)c2ccccc2[N+](=O)[O-])cc1	-2.8%	-0.4%
COc1ccc(/C=N/NC(=S)NC2CCS(=O)(=O)C2)cc1 (configuration not stated)	-4.6%	11.0%

structure	FEN1 inh	N370S GC
O=c1c2c3c(sc2nc(N2CCNCC2)n1CCc1ccccc1)CCCCC3	1.1%	-10.6%
Cc1noc(C)c1CSCC(=O)NC1=NCCS1	-6.4%	-1.7%
COc1ccc(NC(=O)Cn2nnc(C(=O)Nc3ccc(F)c(Cl)c3)c2N)cc1	8.5%	-17.3%
COc1ccccc1CNC(=O)Cn1cnc2ccccc2c1=O	-5.3%	10.8%
O=C(O)c1ccccc1Nc1ccnc(Cl)n1	35.4%	-2.3%
COC(=O)C1=C(C(=O)OC)SC(=C2C(=S)C(C)(C)N(C(=O)C(C)C)c3ccccc32)S1	-19.4%	4.0%
O=C(c1cccc(S(=O)(=O)N2CCc3ccccc32)c1)N1CCN(CCO)CC1	8.5%	.
Cn1nc(C(=O)NNC(=O)c2ccccc2F)c2ccccc2c1=O	5.0%	.
CSCC[C@H](NC(=O)Nc1ccc(Oc2ccccc2)cc1)C(=O)O	-5.8%	6.1%
CCCc1ccc(OCc2ccc(C(=O)OC)o2)c(OC)c1	-0.5%	5.3%
CCOc1ccc(OCCn2nnc3ccccc3c2=O)cc1	13.2%	-3.0%
O=C(Nc1ccc(N2CCN(C(=O)c3ccco3)CC2)cc1)c1cccc(F)c1	5.8%	-1.9%

structure	FEN1 inh	N370S GC
CC(C)NC(=O)Cn1c(=O)nc(-c2ccccc2)c2ccccc21	-3.7%	.
O=C(N1CCOCC1)N1CCN(Cc2ccccc2)CC1	-8.1%	3.7%[2.35 µM]
Cc1cccc(CCNC(=O)c2ccc3c(c2)nc2n3CCOC2)c1	12.8%	.
O=C(NC1CCCC1)C(c1ccccc1)N(C(=O)c1ccno1)c1ccccc1 (configuration not stated)	1.0%	1.5%
Clc1cccc(CN2CCC(Cc3ccccc3)CC2)c1	10.1%	-19.6%
CCC12CN(S(=O)(=O)c3ccc(C)cc3)CC(CC)(CN(S(=O)(=O)c3ccc(C)cc3)C1)C2=O	13.0%	-8.2%
Cc1ccc(/C=N/NC(=O)CSc2nc3nc(C)cc(C)n3n2)cc1	-0.1%	4.2%
CC(=O)Nc1ccc(S(=O)(=O)N2CCN(C3CCCCCCC3)CC2)cc1	0.3%	7.3%[2.35 µM]
CC1=C(C(=O)Nc2ccccc2)C(c2ccc3c(c2)OCO3)C2=C(CCCC2=O)N1 (configuration not stated)	-3.6%	7.7%
COC(=O)C(C(=O)Nc1ccccc1C)C1CCCC1 (configuration not stated)	-4.5%	-3.0%[2.35 µM]
COc1cccc(NC(=O)CNC(=O)c2ccc(OC)c(OC)c2)c1	9.2%	-2.3%
COc1ccc(S(=O)(=O)c2nnn(-c3ccccc3F)c2C)cc1	-13.2%	.

structure	FEN1 inh	N370S GC
CCOC(=O)C1=NOC2C3CC(C12)C1C(=O)N(CCc2ccc(OC)c(OC)c2)C(=O)C31 (configuration not stated)	-0.2%	0.1%
CN(C)S(=O)(=O)c1ccc(Cl)c(NC(=O)C2CCN(S(=O)(=O)c3cccs3)CC2)c1	-15.9%	.
COc1ccccc1CNc1nc(-c2ccco2)nn1S(=O)(=O)c1ccc(Cl)cc1	-0.7%	.
O=C(NCCc1ccccn1)C(F)(F)C(F)(F)C(F)(F)C(F)(F)C(F)(F)C(F)F	-6.2%	12.5%
COC(=O)C(C)C1Sc2ccccc2NC1=O (configuration not stated)	-0.5%	0.2%
COc1cc2c(cc1OC)CN(C(=O)Cc1ccc(OC)c(S(=O)(=O)N3CCOCC3)c1)CC2	1.9%	1.0%
CCOC(=O)N1CCN(C(=S)NC2CCCC2)CC1	-3.0%	-9.6%
Cc1ccc(CNC(=O)c2sc3nc(-c4ccc(F)cc4)ccc3c2N)cc1	0.3%	.
C=CCOc1c(Br)cc(CNn2c(C)n[nH]c2=S)cc1OCC	-5.9%	-0.7%
O=C(COc1ccc([N+](=O)[O-])cc1)NN=C1CCCC1	5.0%	5.7%
CCOc1ccc(CN2C(=O)c3ccccc3Sc3ccc(C(=O)OC)cc32)cc1	-10.5%	.
Nc1c(NCCCN2CCOCC2)c2ccccc2oc1=O	-4.2%	-22.3%

structure	FEN1 inh	N370S GC
O=C(c1cccc(S(=O)(=O)N2CCCC2)c1)N1CCN(Cc2ccccc2)CC1	12.8%	.
COCC1CCN(C(=O)c2oc3c(F)cccc3c2C)C1 (configuration not stated)	5.4%	2.8%
CCn1cc(C(=O)NCc2ccncc2)c(=O)c2cc(F)c(N3CCN(C(=O)c4ccco4)CC3)cc21	4.8%	-12.4%
CCC1(C)Cc2c(sc3nc(NC)n(C)c(=O)c23)CO1 (configuration not stated)	-1.1%	21.4%
Cc1ccc(C)c(N(CC(=O)Nc2cc(Cl)ccc2Oc2ccccc2)S(C)(=O)=O)c1	-14.7%	19.3%
O=C(/C=C/c1ccc(Cl)cc1)N(Cc1ccccc1)c1ccccn1	-5.9%	20.5%
CNC(=O)/C(C#N)=C/c1ccc(-c2ccc(Cl)cc2)o1	8.7%	-6.5%
C/C(=N\NC(=O)C1COc2ccccc2O1)c1ccc(C)o1 (configuration not stated)	-1.3%	3.9%
CSc1nnc2c3c4c(sc3c(=O)n(-c3ccccc3)n12)CC(C)(C)OC4	4.5%	?
CCCCCC1CC(CC(C)C(=O)Nc2nncs2)C(=O)O1 (configuration not stated)	-1.8%	0.0%
C=CCn1c(SCC(=O)Nc2sccc2C(N)=O)nc2ccccc2c1=O	-10.1%	?
CC(C)(CNC(=O)c1cccc(S(=O)(=O)Nc2ccc(Br)cc2)c1)N1CCOCC1	-3.6%	?
O=C(Nc1ccc(S(=O)(=O)N2CCCCCC2)cc1)C1CCCO1 (configuration not stated)	-1.1%	22.9%
